RE007 growth inh = less growth of the S. pombe RE007 Vpr strain; AID 651644; actives 0.21% (n = 360,000); S. pombe RE007 Vpr strain, BacTiter-Glo ATP luminescence, 24 h; control for the full effect not named in the record; Potency, µM (doses to about 92.2 µM), inactives show at the highest dose activity change, negative = less growth; active = well fitted falling curve with a large enough effect; inconclusive = small, poorly fitted or top-dose-only effect; inactive = no such curve, though single readings can be large or run the other way;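 also: % is scaled to controls: 0 for no effect and ±100 for the full control effect; nearly all actives have a fitted effect of over 50% in size; the assay follows cell death caused by Vpr and the record does not say whether a fall means rescue or toxicity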
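Fission yeast RE007 carrying one integrated HIV-1 vpr copy, seeded at OD 0.01 in PMG+AL medium with 23 nL pinned compound. Grown 24 h at 30 degrees; viability read by BacTiter-Glo luminescence after 5 min.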
StopGo reporter = FMDV 2A StopGo reporter, luciferase signal. human cells with a luciferase reporter of 2A StopGo recoding; control for the full effect not named in the record. Potency, µM (series often up to 57.9 µM), without a hit: at the top dose signal change, negative = less light. actives 1.2% (n = 410,000). AID 1159524; active = well fitted falling curve with a large enough effect; inconclusive = small, poorly fitted or top-dose-only effect; inactive = no such curve, though single readings can be large or run the other way; tested in HEK293T cells; also: % is scaled to controls: 0 for no effect and ±100 for the full control effect; nearly all actives have a fitted effect of over 45% in size; luciferase light after 4 h
Lassa entry inh = blocks Lassa virus binding to or entry into cells; Lassa virus pseudotype entry inhibition, cell reporter; control for the full effect not named in the record; Potency, µM (highest dose often 37.9 µM), for inactives: at the top dose activity change, negative = inhibition, most hits filed as inhibitors; actives 1.2% (n = 300,000); AID 540256; active means well fitted inhibition curve with a large enough effect; inconclusive means small, poorly fitted or top-dose-only effect, or effect the other way; inactive means flat fitted curve, though single readings scatter; tested in HEK293 cells; also: % is scaled to controls: 0 for no effect and ±100 for the full control effect; nearly all actives have a fitted effect of over 50% in size; luciferase read-out
MARV entry inh = Marburg virus entry inhibition | Marburg virus pseudotyped entry inhibition, cell reporter; control for the full effect not named in the record; about a third of the inactives were read at about 46 µM | Potency, µM (top dose mostly 37.8 µM), inactives show top-dose activity change, negative = inhibition, usual class: inhibitors | actives 1.8% (n = 300,000) | AID 540276; active = well fitted inhibition curve with a large enough effect; inconclusive = small, poorly fitted or top-dose-only effect, or effect the other way; inactive = flat fitted curve, though single readings scatter; tested in HEK293 cells; about a fifth of its hits are not listed in these tables; also: % is scaled to controls: 0 for no effect and ±100 for the full control effect; luciferase read-out
SARS PLpro yeast = SARS-CoV PLP inhibition in yeast; actives 0.19% (n = 330,000); Potency, µM (top dose mostly 32.9 µM), without a hit: top-dose activity, positive = growth rescue; S. cerevisiae expressing SARS-CoV PLpro, growth rescue; control for the full effect not named in the record; active means well fitted rising curve with a large enough effect; inconclusive means small, poorly fitted or top-dose-only effect; inactive means no such curve, though single readings can be large or run the other way; also: 0% is about no effect; nearly all actives have a fitted effect of over 55% in size; growth read by luminescence after 48 h
Cruzain noTriton = blocks cruzain activity in detergent-free assay; Potency, µM, for inactives: max response, negative = inhibition, most hits filed as inhibitors; actives 2.3% (n = 200,000); purified cruzain, Z-FR-AMC fluorescence, no detergent; P25779; AID 1476;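 also: plate controls were enzyme without inhibitor for no effect and buffer without enzyme for full effect; nearly all actives have a fitted effect of over 40% in size; top concentration of the series not given in the record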
Target sequence (P25779 123-467 limits assumed): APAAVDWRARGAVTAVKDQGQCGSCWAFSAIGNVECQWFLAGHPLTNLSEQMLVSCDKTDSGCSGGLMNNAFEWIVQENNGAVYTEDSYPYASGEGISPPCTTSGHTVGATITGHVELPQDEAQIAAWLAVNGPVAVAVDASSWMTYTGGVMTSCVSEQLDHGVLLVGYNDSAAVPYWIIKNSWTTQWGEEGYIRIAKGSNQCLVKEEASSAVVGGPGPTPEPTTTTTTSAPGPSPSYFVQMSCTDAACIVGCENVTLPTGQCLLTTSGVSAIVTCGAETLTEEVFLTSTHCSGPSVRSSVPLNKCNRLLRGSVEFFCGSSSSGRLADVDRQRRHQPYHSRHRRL
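Detergent-free condition (0.00005% Triton X-100) in acetate buffer pH 5.5 with DTT. 1.5 nM enzyme and compound were pre-mixed 15 min, then 2 uM Z-FR-AMC substrate added; reaction progress from fluorescence change between first and third reads (60 s).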
Cruzain inh Det = inhibitors of Trypanosoma cruzi cruzain with detergent | actives 0.43% (n = 200,000) | purified cruzain, Z-FR-AMC fluorescence, 0.01% Triton | Potency, µM, for inactives: max response, negative = inhibition, actives largely listed as inhibitors | AID 1478 | P25779;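 also: plate controls were neutral wells for no effect and buffer without enzyme for full effect; nearly all actives have a fitted effect of over 40% in size; top concentration of the series not given in the record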
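Purified cruzain (1.5 nM final) was preincubated with compounds for 15 min at room temperature in 100 mM sodium acetate pH 5.5, 5 mM DTT, 0.01% Triton X-100. Reaction started with 2 uM Z-FR-AMC; AMC fluorescence change over 60 s gave activity.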
NS1 inh = blocks influenza NS1 protein function. S. cerevisiae slowed by influenza A NS1, growth recovery by OD600. Potency, µM (top dose mostly 46.1 µM), for the others: top-dose activity, positive = more growth. actives 0.4% (n = 270,000); active means well fitted rising curve with a large enough effect; inconclusive means small, poorly fitted or top-dose-only effect; inactive means no such curve, though single readings can be large or run the other way; also: nearly all actives have a fitted effect of over 50% in size
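Read-out: OD600 growth recovery of NS1-expressing budding yeast. Cells grown overnight at 30C in -URA glucose medium, washed, resuspended and diluted 1:100 in 2% galactose assay medium, pH 6.0. Same strain lacking NS1 served as positive control.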
Starred values were filed as active, the others as inactive; ? = inconclusive; · = not tested or not shown; & = joins results of further samples; [ ] = another dose, or the depositor's remark. Unless noted, calls follow the shape of the dose curve; as a rule, active = well fitted curve in the direction sought with a large enough effect; inconclusive = small, poorly fitted or top-dose-only effect, or another doubt; inactive = no such curve, though single readings can be large; an effect the other way counts as inactive or inconclusive. Potency is read from the fitted curve at half-maximal effect. Outcome played no part in choosing rows; any-hit rate near 4.7%.

| # | Molecule | RE007 growth inh | Lassa entry inh | NS1 inh | Cruzain inh Det | MARV entry inh | SARS PLpro yeast | Cruzain noTriton | StopGo reporter |
| --- | --- | --- | --- | --- | --- | --- | --- | --- | --- |
| 1 | C=CCn1c(COc2ccccc2-c2ccccc2)nnc1SCC(=O)NC(=O)NCc1ccco1 | 4% | -6% | -23% | -4.6% | 2% | -4% | 20% | -22% |
| 2 | Cc1ccc(N2C(S)=C(C#N)C(=O)NC2c2ccco2)cc1 (centres undefined) | -11% | 12%[46.1 µM] | · | · | ? | 3% | · | -6% |
| 3 | COc1ccc(-c2nc3ccccc3c(=O)n2CCOc2cccc(C)c2C)cc1 | 1% | -4% | -3% | 0.5% | -19% | -4% | ? | -23% |
| 4 | Cc1ccc(OCC(=O)Nc2ccc(S(=O)(=O)Nc3cc(C)nc(C)n3)cc2)c(Br)c1 | · | -1%[46.1 µM] | · | -19% | · | · | ? | 45%[activator] |
| 5 | CC1CC(C)CN(C(=O)c2ccc3c(c2)N(Cc2ccccc2)CCS3)C1 (centres undefined) | 6% | · | -101% | -11% | · | -27% | 3% | 16% |
| 6 | COC1(OC)N=C(N)C2(C#N)C(c3ccccc3)NC(C)=CC12C#N (centres undefined) | 18% | 1% | 8% | 8.2% | 8% | 3% | -6% | -3% |
| 7 | COc1ccc(OC)c(N/C(C)=C/C(=O)c2ccc(C)o2)c1 | 17% | 22% | -8% | -7.5% | 16% | 0% | 4% | 5% |
| 8 | CCCS(=O)(=O)N1CCN=C1SCc1cccc(F)c1 | 0% | · | -5% | · | · | -3% | · | -5% |
| 9 | CCCCn1c(NCc2cc(Cl)ccc2O)nc2ccccc21 | · | 30%[46.1 µM] | · | -8.5% | · | · | -8% | ? |
| 10 | C=C(C)c1cccc(C(C)(C)NC(=O)NCc2ccc(OC)c(OC)c2)c1 | -4% | 0% | 13% | 2.6% | ? | -5% | 14% | -16% |
| 11 | COc1ccc(-c2nc(CS(=O)CC(=O)NCCCN3CC(C)CC(C)C3)c(C)o2)cc1OC (centres undefined) | -12% | 2% | -12% | 5.8% | -28%&-28% | -17% | 1% | 3% |
| 12 | Cc1ccc(N2CN=C(c3ccccc3)NC2=S)cc1 | 4% | 10% | -4% | 0.2% | 19% | ? | 1% | · |
| 13 | O=C(NCCS(=O)(=O)NCc1ccccc1)c1ccccc1 | 1% | 24% | · | · | 3% | 5% | · | 33%[activator] |
| 14 | Cc1cc(C)n(C(C)n2nc(C)cc2C)n1 | 9% | -9% | 4% | 5.1% | 3% | -9% | -4% | -6% |
| 15 | CN=C(Nc1cc(Cl)ccc1Cl)SC1CC(=O)N(c2ccc(C(=O)OC)cc2)C1=O (centres undefined) | 10% | ? | -26% | -1.4% | -19% | -26% | 24% | -17% |
| 16 | Cc1ccc(Cl)cc1N1CCN(C(=O)c2cc(S(=O)(=O)N3CCCCCC3)cn2C)CC1 | · | -30%[46.1 µM] | · | -6.8% | · | · | ? | ? |
| 17 | COc1ccc(C(=O)Nc2ccc(N3CCN(C(=O)c4ccccc4)CC3)cc2)cc1[N+](=O)[O-] | 5% | ? | 26% | · | ? | 1% | · | ? |
| 18 | Cc1c(C(=O)NCCSCc2cccc(C(F)(F)F)c2)cnn1-c1ccc(Cl)cc1 | 2% | ? | 6% | · | ? | 0% | · | -25% |
| 19 | COc1cc(C2CC(=O)Nc3cc4c(cc32)OCCO4)cc(OC)c1O (centres undefined) | · | -27%[46.1 µM] | · | -1.6% | 5%[46.1 µM] | · | -14% | -12% |
| 20 | CC1=CC(C)(C)NC(=S)N1NC(=O)c1ccccc1Cl | 26% | -2% | -5% | · | 17%[46.1 µM] | 0% | · | 19% |
| 21 | COc1ccc(OCCCC(=O)N(C)CC(=O)Nc2ccccc2Cl)cc1 | -7% | -15% | -9% | · | 2% | 0% | · | 5% |
| 22 | Cc1ccc(C(=O)NCCc2nnc3ccc(SCC(=O)N4CCCCC4)nn23)cc1 | -13% | -1% | 3% | · | -11% | · | · | -14% |
| 23 | CC(C)CC(=O)Nc1ccc2ccccc2c1 | -5% | -4% | 5%&1% | · | 3%&3% | -4%&-1% | · | -1% |
| 24 | N#Cc1nc(-c2ccc(OCc3ccccc3)cc2)oc1NCc1cccnc1 | -21% | -26% | -2% | -3.8% | -19% | 4% | ? | -26% |
| 25 | Cc1cc2c(ncn2C)c(NS(=O)(=O)c2ccccc2Cl)c1C | -2% | 0% | 1% | 1.7% | -11% | 4% | -2% | 9% |
| 26 | COc1ccc(C(=O)Nc2cc(C(F)(F)F)ccc2Cl)cc1OC | 5% | 2% | -10% | -3.8% | -5% | -4% | 30% | -2% |
| 27 | CC1CCCCC1NCc1cccc([N+](=O)[O-])c1 (centres undefined) | -8% | 9% | 1% | · | -17% | 0% | · | 26% |
| 28 | COc1ccc(CC(=O)NC2CCSc3ccccc32)c(OC)c1 (centres undefined) | 5% | ? | -20% | · | -12% | 0% | · | 7% |
| 29 | O=C(Nc1cccc(C(=O)O)c1)/C(=C\c1ccccc1)NC(=O)c1ccccc1 | -8% | -6% | 11% | · | ? | -2% | · | 8% |
| 30 | Cc1ccc(C)c(NC(=O)c2oc(=O)c3ccccc3c2-c2ccccc2)c1 | -1% | ? | 2% | -4.9%&-8.2% | 3%[46.1 µM] | 0% | -3%&-3% | ? |
| 31 | S=c1[nH]nc(C2CCCCC2)n1/N=C/c1c(Cl)cccc1Cl | 6% | · | 4% | · | · | -1% | · | 2% |
| 32 | COC(=O)c1ccc(-c2ccco2)n1Cc1ccccc1Cl | 4% | 0% | 2% | -8.5% | -18% | -1% | -8% | ? |
| 33 | COc1ccc(CCC(=O)NNC(=O)Nc2cc(Cl)ccc2C)cc1 | -8% | ? | 8% | · | -7% | 15% | · | 11% |
| 34 | CCNc1c(NS(=O)(=O)c2ccc([N+](=O)[O-])cc2)c(=O)oc2ccccc12 | 17% | 12% | 1% | · | -3%[46.1 µM] | -4% | · | 0% |
| 35 | O=C(CCCN1C(=O)C(c2ccccc2)Oc2cccnc21)Nc1ccccc1C(F)(F)F (centres undefined) | · | -3%[46.1 µM] | · | -1.3% | · | · | 3% | -6% |
| 36 | COCCNC(=O)C(=O)NNC(=O)CCc1ccccc1 | -6% | · | 2% | · | · | 1% | · | 10% |
| 37 | O=S(=O)(c1ccc(Cl)cc1)c1nc(-c2ccco2)oc1N1CCOCC1 | 10% | -10%[46.1 µM] | -1% | · | -14%[46.1 µM] | -1% | · | 3% |
| 38 | CCOC(=O)c1cc(C)n(-c2ccc(OC)c(OC)c2)c1C | -7% | ? | -12% | -2.0% | ? | 0% | 6% | -24% |
| 39 | COc1cccc(N2CC(O)Cn3c2nc2c3c(=O)[nH]c(=O)n2C)c1 (centres undefined) | 12% | 6% | -1% | · | 11% | 6% | · | -13% |
| 40 | Cc1ccc(C)c(C(=O)CSc2nc(-c3ccccc3)nc3c2CCCC3)c1 | · | -3%[46.1 µM] | · | -3.0% | -23%[46.1 µM] | · | -1% | ? |
| 41 | N#Cc1ccc(C(=O)Nc2ccc(S(=O)(=O)NC3=NCCCCC3)cc2)cc1 | -3% | -6% | 8% | 9.2% | ? | -1% | -3% | -22% |
| 42 | COc1ccc2oc(C(=O)Nc3nc4ccccc4[nH]3)c(C)c2c1 | -29% | · | -2% | · | · | 0% | · | -16% |
| 43 | CC(=O)Nc1cccc2c1[n+]([O-])c(C)c(C)[n+]2[O-] | · | · | -2% | -1.6% | -4% | 3% | -7% | · |
| 44 | O=c1oc2ccc(NS(=O)(=O)c3cccc4cccnc34)cc2s1 | 4% | 11%[46.1 µM] | -29% | · | ? | -6% | · | 6% |
| 45 | COc1ccccc1C(CNC(=O)C1CC(=O)N(Cc2ccc(C)cc2)C1)N1CCCC1 (centres undefined) | -6% | 0% | · | · | 1% | -2% | · | -13% |
| 46 | CC(=O)c1cccc(NC(=O)C2CCN(S(=O)(=O)c3ccc4c(c3)CCCN4C(C)=O)CC2)c1 | · | -24%[46.1 µM] | · | -2.3% | · | · | 20% | -23% |
| 47 | c1ccc2nc3c(nc2c1)c1ccccc1n3CCN1CCOCC1 | -3% | -8% | -44% | -8.9% | -15% | -8% | 0% | -3% |
| 48 | CCN=C1SC(CC(=O)Nc2ccccc2OCC)C(=O)N1CC (centres undefined) | 7% | -3% | -11% | 6.6% | 9% | -4% | 5% | 5% |

Some of the entries so far, with two lines to a compound:
Screens in order – RE007 growth inh, Lassa entry inh, NS1 inh, Cruzain inh Det, MARV entry inh, SARS PLpro yeast, Cruzain noTriton, StopGo reporter
[41] N#Cc1ccc(C(=O)Nc2ccc(S(=O)(=O)NC3=NCCCCC3)cc2)cc1
  -3%, -6%, 8%, 9.2%, ?, -1%, -3%, -22%
[42] COc1ccc2oc(C(=O)Nc3nc4ccccc4[nH]3)c(C)c2c1
  -29%, ·, -2%, ·, ·, 0%, ·, -16%
[43] CC(=O)Nc1cccc2c1[n+]([O-])c(C)c(C)[n+]2[O-]
  ·, ·, -2%, -1.6%, -4%, 3%, -7%, ·
[44] O=c1oc2ccc(NS(=O)(=O)c3cccc4cccnc34)cc2s1
  4%, 11%[46.1 µM], -29%, ·, ?, -6%, ·, 6%
[45] COc1ccccc1C(CNC(=O)C1CC(=O)N(Cc2ccc(C)cc2)C1)N1CCCC1 (centres undefined)
  -6%, 0%, ·, ·, 1%, -2%, ·, -13%
[46] CC(=O)c1cccc(NC(=O)C2CCN(S(=O)(=O)c3ccc4c(c3)CCCN4C(C)=O)CC2)c1
  ·, -24%[46.1 µM], ·, -2.3%, ·, ·, 20%, -23%
[47] c1ccc2nc3c(nc2c1)c1ccccc1n3CCN1CCOCC1
  -3%, -8%, -44%, -8.9%, -15%, -8%, 0%, -3%
[48] CCN=C1SC(CC(=O)Nc2ccccc2OCC)C(=O)N1CC (centres undefined)
  7%, -3%, -11%, 6.6%, 9%, -4%, 5%, 5%
